Menin MLL FP FL: displaces fluorescein MLL peptide from human menin | Fluorescence polarization, fluorescein-MLL peptide displacement from menin | FP activity change, % at 61.4 µM | 290,000 tested, under 10 active; inconclusive = falling polarisation curve, or a change in total fluorescence; inactive = total fluorescence flat and polarisation flat or rising; no compound was filed as active; the % refers to the polarisation; negative = inhibition;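 note: % of control where 0% means no effect; inhibitors lower the polarisation; unlabelled MLL peptide was the positive control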
gsp ag: activates gsp, the McCune-Albright syndrome mutation. gsp mutant cells, cAMP HTRF, 30 min; control for the full effect not named in the record. Potency, µM (series often up to 76.9 µM), for the others: at the highest dose activation (cAMP increase), usual class: activators. 340,000 compounds, 0.13% hits; active = well fitted activation curve with a large enough effect; inconclusive = small, poorly fitted or top-dose-only effect, or another doubt; inactive = no such curve, though single readings can be large or run the other way; cell line not stated here;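 note: phosphodiesterase inhibitor Ro 20-1724 added with compounds to block cAMP breakdown; potency is the fitted concentration of half-maximal effect; nearly all actives have a fitted effect of over 60% in size; about a fifth of the inactives were tested at one dose only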
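Cells stably selected in G418 were plated at 2000/well, grown 16-24 hr, then given compounds in DMSO with the PDE inhibitor […] (300 uM solution added) for 30 min at 37C; cAMP was read by HTRF.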
Sfp PPTase inh: Sfp phosphopantetheinyl transferase inhibition. Potency, µM, for inactives: max response, negative = inhibition, actives largely listed as inhibitors. Biochemical Sfp PPTase activity, qHTS. AID 1490. 310,000 compounds, 3.5% hits. Q9F4F7; active = well fitted inhibition curve with a large enough effect; inconclusive = small, poorly fitted or top-dose-only effect, or another doubt; inactive = no such curve, though single readings can be large or run the other way;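 note: the enzyme is Sfp with the accession as filed and its product quenches rhodamine fluorescence; potency is the fitted concentration of half-maximal effect; 0% = enzyme reaction without inhibitor and -100% = no enzyme wells; top concentration of the series not given in the record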
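Step 1, compound plus 15 nM Sfp-PPTase, 15 min, room temperature. Step 2, add rhodamine-CoA (5 uM) and BHQ-2-YbbR (12.5 uM). Step 3, read 525/598 nm fluorescence at 0 and 30 min.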
PINK1 expr mod: changes PINK1 expression | PINK1 immunofluorescence, high-content cytometry, 24 h | Potency, µM (titrated, usually from 76.6 µM), inactives show at the highest dose activation (PINK1 increase), most hits filed as activators | 410,000 compounds, 0.2% hits | AID 624263; active = well fitted activation curve with a large enough effect; inconclusive = small, poorly fitted or top-dose-only effect; inactive = flat fitted curve, though single readings scatter; cell line not stated here;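 note: potency is the fitted concentration of half-maximal effect; % of control where 0% means no effect; nearly all actives have a fitted effect of over 65% in size; a mitochondrial uncoupler was the plate control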
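PINK1 protein level read as immunofluorescence by microplate cytometer in a fixed, stained stable cell line after 24 h exposure to five compound concentrations, with CCCP as control.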
D2 ag: human D2 receptor agonism in beta-arrestin assay | P14416 | activation, % (test concentration not listed) | DiscoveRx PathHunter D2 beta-arrestin, luminescence, 90 min; 100% = 57 uM dopamine signal | 360,000 compounds, 0.084% hits | AID 624465; in the data active = activation above about 40%; inconclusive = about 15% to 40%; inactive = below about 15%; note: compound concentration not given in the record; the text of the record calls up to 30% inactive
Target sequence (P14416 whole entry, looked up): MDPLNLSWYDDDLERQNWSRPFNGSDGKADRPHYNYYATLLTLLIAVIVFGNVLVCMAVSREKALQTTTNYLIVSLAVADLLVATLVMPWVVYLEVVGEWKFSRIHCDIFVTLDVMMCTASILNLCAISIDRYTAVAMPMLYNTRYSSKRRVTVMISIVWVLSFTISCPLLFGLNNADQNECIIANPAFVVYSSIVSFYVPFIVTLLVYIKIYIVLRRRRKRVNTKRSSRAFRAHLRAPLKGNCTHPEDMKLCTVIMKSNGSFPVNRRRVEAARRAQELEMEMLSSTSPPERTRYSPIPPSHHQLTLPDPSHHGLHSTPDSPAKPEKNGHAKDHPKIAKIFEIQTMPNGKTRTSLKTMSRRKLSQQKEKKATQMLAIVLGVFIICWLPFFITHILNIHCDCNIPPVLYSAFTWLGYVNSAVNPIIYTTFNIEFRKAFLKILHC
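DiscoveRx PathHunter D2 beta-arrestin cells (2,100/well) attached overnight, then compound-stimulated 90 min at 37 C in HBSS/10 mM HEPES/0.1% Tween-20 buffer; beta-galactosidase complementation read by luminescence after 1 h at ambient temperature. Dopamine 57 uM final (EC100) as control.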
ClpP mod: qHTS Assay for Activators of ClpP | 340,000 compounds, 1.9% hits | ATP-dependent Clp protease proteolytic subunit (Bacillus subtilis (strain 168)), P80244 | purified B. subtilis ClpP, FRET peptide cleavage, 20 min | Potency, µM (top dose mostly 57.5 µM), inactives show at the top dose activity change, negative = active; active = well fitted falling curve with a large enough effect; inconclusive = small, poorly fitted or top-dose-only effect; inactive = no such curve, though single readings can be large or run the other way; note: potency is the fitted concentration of half-maximal effect; the source files actives as falling curves though it sought activators and does not explain the sign; nearly all actives have a fitted effect of over 65% in size; many hits overshoot -100%
Target sequence (P80244 whole entry, looked up): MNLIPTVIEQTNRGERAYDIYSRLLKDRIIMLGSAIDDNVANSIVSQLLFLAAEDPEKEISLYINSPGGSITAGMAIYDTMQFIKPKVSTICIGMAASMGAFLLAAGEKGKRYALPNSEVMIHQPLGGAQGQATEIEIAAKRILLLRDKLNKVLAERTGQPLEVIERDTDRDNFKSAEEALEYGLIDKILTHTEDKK
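Buffer: 100 mM Tris/HCl pH8, 100 mM KCl, 0.05% low protease BSA, 2.5% glycerol, 0.01% Tween-20. ClpP 10 microg/mL final; 20 min RT; delta FRET normalized to ADEP and DMSO controls.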
gsp antagonist: antagonists of gsp mutant (McCune-Albright syndrome) | gsp-mutant cells, cAMP HTRF, 30 min; control for the full effect not named in the record | Potency, µM (doses to about 76.9 µM), without a hit: at the highest dose activity change, negative = inhibition, usual class: inhibitors | 340,000 compounds, 0.4% hits | AID 624288; active = falling curve of any shape with a large fitted effect; inconclusive = falling curve, mostly with a smaller effect; inactive = flat or rising curve; cell line not stated here;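 note: intracellular cAMP measured with PDE inhibitor Ro 20-1724 present during compound exposure; potency is the fitted concentration of half-maximal effect; % is set by controls: 0 for no effect and ±100 for the full control effect; nearly all actives have a fitted effect of over 65% in size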
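Cells in G418 medium, seeded 16-24 h, 37C; buffer exchange to DPBS + 1 mM CaCl2, 0.5 mM MgCl2, 0.05% BSA; cpds in DMSO + […] (300 uM stock), 30 min 37C; HTRF cAMP detection.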
* marks the source's active call; other numbers are inactive results; ? = inconclusive; . = no result given; [ ] = remark or other dose.

SMILES	Menin MLL FP FL	gsp ag	Sfp PPTase inh	PINK1 expr mod	D2 ag	ClpP mod	gsp antagonist
COc1ccccc1NC(=O)CCc1nc(-c2ccccc2F)no1	-0.3	4%[15.4 µM]	15%	0.1%	-5.2	36%	7%
COc1ccc(-c2nc3nc(C)cc(C)n3n2)cc1	0.0	15%	13%	-1.3%	-0.6	16µM*	18%
O=C(CSc1nnc(-c2cccnc2)o1)Nc1ccccc1Br	-4.3	-28%[15.4 µM]	5%	1.5%	1.1	.	.
N#CC1=C(Nc2ccc(Br)cc2)CCC1	8.4	-27%	-4%	-0.5%	0.2	-3.6%	-1%
COCCCNC(=O)CC(NS(=O)(=O)c1ccc(C)cc1)c1ccc(OC)cc1 (stereo unspecified)	5.1	-32%[inhibitor]	24%	-6.9%[38.3 µM]	0.4	0.3%	-5%
CCOc1ccc(CN(C)C(=O)c2ccc(NC(=O)CC3SC(N4CCCC4)=NC3=O)cc2)cc1 (stereo unspecified)	.	?	-4%	-0.8%	1.9	-0.9%	4%
COc1ccc([C@H]2C[C@H](O)[C@@H](n3cc(-c4ccc(F)cc4)nn3)CN2CC2CCCCC2)cc1	.	-9%	.	-0.3%	0.2	-2.4%	.
COc1cc(OC)cc(C(=O)Nn2c(C)nc3ccccc3c2=O)c1	0.5	-22%	12%	-0.2%	-3.0	-1.3%	5%
Cc1nnc(SCc2ccc(F)cc2Cl)s1	0.0	0%	25%	3.9%	-5.8	1.5%	11%
Cc1cccnc1NCC(O)COc1ccccc1 (stereo unspecified)	0.2	-4%	16%	-0.5%	-1.9	28µM*	12%
CCc1ccc(CN(Cc2cccnc2)C(=O)/C=C/c2ccc(OC)cc2)cc1	?	-6%[15.4 µM]	?	0.7%	2.9	.	.
CC(C)Sc1nnc(NC(=O)c2ccco2)s1	3.3	?	-25%	-0.7%	3.3	.	-3%
CCn1cc(CN(C)S(=O)(=O)c2cccc([N+](=O)[O-])c2)cn1	-3.3	-7%	7%	0.6%	6.0	.	11%
CCOC(=O)C1C(=O)NC(N2CCCCC2)=NC1c1ccco1 (stereo unspecified)	1.5	-11%	-6%	0.8%	0.1	-2.3%	-9%[15.4 µM]
N#Cc1cc([N+](=O)[O-])ccc1NCCc1ccccn1	-1.7	-10%[15.4 µM]	9%	-0.9%	0.8	.	-5%
Cc1ccc(OCC(=O)NC(C)c2ccc(Cl)c(Cl)c2)c([N+](=O)[O-])n1 (stereo unspecified)	.	-6%[15.4 µM]	-3%	3.7%	-2.0	.	-11%
CSc1ccccc1NC(=O)CN(C)Cc1cc(=O)n2ccsc2n1	1.0	4%[15.4 µM]	?	-0.7%	-3.9	-0.6%	-8%
Cc1cc(NC(=O)c2ccccc2[N+](=O)[O-])ccc1Br	-1.0	12%	-1%	1.5%	-4.2	.	-23%
CC[N+]1(CC)CC2=Cc3c(ccc4ccccc34)C(C)C2C1 (stereo unspecified)	2.8	-21%[15.4 µM]	6%	-0.3%	1.4	.	-3%
O=C(NC1CCCC1)C(c1ccc(F)cc1)N(Cc1ccc(F)cc1)C(=O)c1ccn[nH]1 (stereo unspecified)	-1.0	?	2%	1.6%[38.3 µM]	-2.9	1.3%	1%
O=C(Cc1ccc(F)cc1)NC1CCS(=O)(=O)C1 (stereo unspecified)	.	6%[15.4 µM]	.	1.0%	-2.1	.	11%
CC(O)C(NS(=O)(=O)c1ccc(Cl)cc1)C(=O)OCC(=O)c1ccc2c(c1)NC(=O)CO2 (stereo unspecified)	.	-25%	.	0.2%	2.4	-1.3%	-1%
CCOC(=O)c1sc(NC(=S)NC(=O)C2CCCC2)cc1C	3.2	4%[15.4 µM]	-1%	12%	-6.6	-0.1%	?
O=C(Nc1ccccc1C(=O)Nc1ccc(Br)cn1)c1ccccc1Cl	.	0%	.	2.2%	2.1	-9.7%	?
O=C1CSC(c2cccc(Cl)c2Cl)N1c1ccccn1 (stereo unspecified)	0.6	0%	1%	1.1%	-0.4	-0.4%	2%
O=C(C[C@@H]1C/C=C\CC[C@@H](Cc2ccc(F)cc2)C(=O)OC[C@@H]2CCCN2C1=O)N[C@H](CO)Cc1ccccc1	.	.	.	0.7%	-0.6	-1.6%	-12%
COc1ccc2c(c1)c(C(=O)OCCN(C)C)c(C)n2C	0.6	-6%	10%	-2.9%	-3.1	-2.6%	2%
COc1ccc(CN=Cc2c(O)[nH]c3ccccc23)cc1	2.6	-5%[15.4 µM]	7%	0.5%	-4.3	.	6%
CCn1cc(S(=O)(=O)Nc2ccc(C)c(Cl)c2)cn1	-2.1	0%	10%	-0.5%	-1.1	0.6%	5%
N#CCSc1nnc2sc3ccccc3n12	5.4	?	22%	-0.4%	-3.6	0.1%	5%
COc1ccccc1CCN=C(N)NS(=O)(=O)c1cc(F)ccc1F	-7.1	-15%	0%	-0.5%	0.1	2.6%	4%
O=C(Oc1cccc(Nc2ncnc3ccccc23)c1)c1cccnc1	-0.1	-2%	-2%	0.8%	6.0	-2.1%	-12%
COc1ccc(NC(=O)NNC(=O)CCc2ccc(O)c(O)c2)cc1OC	1.3	15%[15.4 µM]	-27%	-0.2%	8.9	-0.2%	1%
COc1ccc(CN2CCN(CCc3ccccc3)C(CCO)C2)c(O)c1 (stereo unspecified)	5.2	?	7%	1.2%	-2.6	.	29%
Cc1cc(CNC(=O)C2CCC(=O)N(Cc3ccccc3F)C2)nn1C (stereo unspecified)	.	-11%	11%	0.8%	-1.6	-1.7%	10%
COc1ccc(N2CCN(c3ccc(C(=O)O)cc3[N+](=O)[O-])CC2)cc1	-9.7	2%	-5%	1.9%	3.0	.	-10%
NC(=O)C1CC(=O)N(c2ccc(OCC(=O)N3CCCC3)cc2)C1 (stereo unspecified)	.	0%[15.4 µM]	.	0.0%	-1.0	.	3%
CC(=O)Nc1ccc(Sc2ccccc2C(=O)O)cn1	-1.3	16%	?	-1.3%	-9.5	-8.4%	3%
O=C(NCC1CCCO1)c1ccc([N+](=O)[O-])s1 (stereo unspecified)	1.4	-13%	20%	3.6%	-0.4	.	3%
CN(C)N1C(N)=C(C#N)C(c2cccs2)C2=C1CCCC2=O (stereo unspecified)	2.4	-20%[15.4 µM]	-20%	-0.2%	3.3	.	-12%
CCN(CC(=O)Nc1ccccc1C(F)(F)F)C(=O)C1=COCCO1	.	-8%[15.4 µM]	.	0.2%	-3.6	-3.8%	17%
CCCc1c(C)[nH]c2ccccc2c1=O	1.4	1%	11%	0.6%	0.2	-7.3%	5%
COc1ccc(CN(C(=O)/C=C/C(=O)c2ccc(OC)cc2O)C(C(=O)NC2CCCCC2)c2ccncc2)cc1 (stereo unspecified)	5.8	-51%[inhibitor]	-3%	3.3%	-0.3	0.6%	-18%
Cc1cc(C)n(C(=O)CN2C(=O)CCC2=O)n1	-0.2	6%	4%	2.7%	-0.9	1.1%	-13%
Cn1c(SCC(=O)NCc2ccccc2)ncc(C(=O)Nc2ccccc2)c1=O	.	5%[15.4 µM]	.	5.9%	-8.6	-0.4%	0%
COc1ccccc1N(CC(=O)N/N=C/c1ccc(OCC(=O)NCc2ccco2)cc1)S(=O)(=O)c1ccc(C)cc1	2.1	6%	8%	0.5%	-0.7	-9.2%	-15%
CC(C)c1ccc(C2c3[nH]c4ccccc4c3C[C@H]3C(=O)N(c4ccccc4C(=O)N4CCC[C@@H]4C(=O)O)C(=O)N23)cc1 (stereo partly specified)	-3.7	.	3%	-0.1%	-2.7	-0.7%	2%
CC(C)c1nc2cc(C(=O)N3CCN(c4cnccn4)CC3)ccc2o1	.	6%	18%	0.8%	-0.7	-13%	11%
CCOC(=O)N1CCN(S(=O)(=O)c2ccc(OCC(=O)OC)c(Cl)c2)CC1	1.5	6%	-7%	3.0%[38.3 µM]	1.3	-1.3%	-13%
Cc1ccc(NC(=O)N2CCCN(C(=O)OC(C)(C)C)CC2)cc1Cl	?	27%	2%	1.4%	-2.7	.	-6%

Limited to gsp antagonist and ClpP mod, for some of the entries so far:
SMILES | gsp antagonist | ClpP mod
CCCc1c(C)[nH]c2ccccc2c1=O | 5% | -7.3%
COc1ccc(CN(C(=O)/C=C/C(=O)c2ccc(OC)cc2O)C(C(=O)NC2CCCCC2)c2ccncc2)cc1 (stereo unspecified) | -18% | 0.6%
Cc1cc(C)n(C(=O)CN2C(=O)CCC2=O)n1 | -13% | 1.1%

Additional results:
SMILES	Menin MLL FP FL	gsp ag	Sfp PPTase inh	PINK1 expr mod	D2 ag	ClpP mod	gsp antagonist
CN1CCN(c2ncc3nc(-c4cccc(C#N)c4)c(=O)n(CCc4ccccc4)c3n2)CC1	-2.2	.	-3%	3.7%	.	.	.
Cc1ccccc1CNC(=O)CCC(=O)N1CCOc2ccccc21	1.2	5%	16%	1.9%	-2.0	-0.9%	6%
O=C(NCCCN1CCOCC1)c1ccc([N+](=O)[O-])cc1[N+](=O)[O-]	0.5	24%	9%	1.1%	?	.	2%
COc1ccc(C(=O)N/C(=C\c2cn(C)c3ccccc23)C(=O)NCCCN2CCOCC2)cc1	.	18%	-13%	0.5%	-1.0	-4.2%	-9%
COc1ccc(CN2CC(C(=O)NCCCN3CCCC(C)C3)CC2=O)cc1 (stereo unspecified)	0.4	-8%	16%	-0.5%	-2.5	0.5%	18%
CCSc1nc(N)c(C#N)c(-c2ccccc2Cl)c1C#N	12	?	10%	11%[38.3 µM]	-1.6	?	16%
Cc1c(-c2ccccc2)oc2c(C(=O)OCC(=O)Nc3ccc(F)cc3)cccc2c1=O	2.0	-14%	-3%	0.9%	-3.4	1.0%	5%
O=C(COC(=O)c1ccc(O)cc1O)NCCN1C(=O)CSC1=O	0.7	12%[15.4 µM]	21%	-0.1%	-4.5	.	3%
COc1ccc(NC(=O)CCNS(=O)(=O)c2ccc3c(c2)c(=O)n(C)c(=O)n3C)cc1	-3.0	-2%	0%	-4.1%[38.3 µM]	-0.2	-0.2%	-1%

High-throughput results (PubChem BioAssay)

Hits appear at their usual frequency (roughly 5.1% active in at least one column).
